High-throughput results as filed in PubChem.
Env fusion inh – inhibitors of HIV Env-mediated cell fusion; HeLa-JRFL Env/CEM21 cell fusion, luciferase; inhibition, % at 12.3 µM; 360,000 tested, 1.1% active;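 active = mean replicate inhibition score of at least 50 and every replicate individually at or above 50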;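 note: 0% = plate neutral controls and 100% = maraviroc near 300 nM; one replicate is shown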
UUG fidelity – yeast start codon fidelity modulation | AID 602363 | activity score, % at 18.7 µM | 350,000 tested, 0.13% active | S. cerevisiae UUG-firefly luciferase reporter, luminescence/redox ratio;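 active = replicate mean at a twofold rise or more, about +100% in these data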;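 note: firefly luciferase made from a UUG start codon reports start codon fidelity; reporter light over untreated wells divided by growth signal over untreated wells; some hits fall short of that in this replicate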
The depositor's hits bear a star; [ ] = another dose, or the depositor's remark. Some of the compounds tested, so the mix of outcomes need not match the whole.

[1] CNC[C@@H]1Oc2c(NC(=O)Nc3ccc(C(F)(F)F)cc3)cccc2C(=O)N([C@@H](C)CO)C[C@@H]1C
[2] COc1ccc(CNC(=O)C[C@@H]2CC[C@H](NC(=O)c3ccc4c(c3)OCO4)[C@@H](CO)O2)cc1
[3] COCC#Cc1cnc2c(c1)C(=O)N([C@@H](C)CO)C[C@@H](C)[C@@H](CN(C)Cc1ccc3c(c1)OCO3)O2
[4] COc1ccccc1CNC(=O)C[C@H]1C[C@H]2c3cc(NS(C)(=O)=O)ccc3O[C@H]2[C@H](CO)O1
[5] COCC#Cc1cnc2c(c1)C(=O)N([C@@H](C)CO)C[C@@H](C)[C@@H](CN(C)C(=O)C1CC1)O2

Screen / compound no. | 1 | 2 | 3 | 4 | 5
Env fusion inh | 6[16.7 µM] | 8[16.7 µM] | -27[16.7 µM] | -3[16.7 µM] | -17[16.7 µM]
UUG fidelity | -7 | -3 | 4 | -10 | 23

[6] C[C@H](CO)N1C[C@H](C)[C@@H](CN(C)Cc2ccc(-c3ccccc3)cc2)Oc2ccc(NC(=O)Nc3ccccc3)cc2C1=O
[7] C[C@@H]1CN([C@@H](C)CO)C(=O)c2cc(C3=CCCC3)cnc2O[C@@H]1CN(C)C(=O)c1ccccn1
[8] O=S(=O)(N[C@@H]1CC[C@H](CCn2cc(-c3ccccc3F)nn2)O[C@H]1CO)c1ccc(Cl)cc1
[9] CC(=O)N(C)C[C@@H]1Oc2ncc(-c3ccc(C(=O)N(C)C)cc3)cc2C(=O)N([C@@H](C)CO)C[C@H]1C
[10] CCC(=O)Nc1ccc2c(c1)C(=O)N(C)[C@H]1CC[C@@H](CC(=O)NCCc3ccncc3)O[C@H]1CO2

Screen / compound no. | 6 | 7 | 8 | 9 | 10
Env fusion inh | 12[16.7 µM] | -13[16.7 µM] | -10[16.7 µM] | -6[16.7 µM] | -28[16.7 µM]
UUG fidelity | 2 | -2 | -3 | 12 | -10

[11] O=C(C[C@@H]1CC[C@@H](NS(=O)(=O)c2ccc(F)cc2)[C@@H](CO)O1)NCc1ccncn1
[12] CCNC(=O)C[C@@H]1CC[C@@H](NS(=O)(=O)c2ccc(C)cc2)[C@H](CO)O1
[13] CN(C)CC(=O)Nc1ccc2c(c1)[C@H]1C[C@H](CC(=O)NCc3ccccc3)O[C@@H](CO)[C@H]1O2
[14] C[C@@H]1CN([C@H](C)CO)C(=O)c2cc(NC(=O)c3ccccc3)ccc2O[C@@H](C)CCCCO[C@H]1CN(C)S(=O)(=O)c1cn(C)cn1
[15] C[C@@H]1CN([C@@H](C)CO)C(=O)c2cc(NC(=O)Nc3ccc(F)cc3)ccc2O[C@H]1CN(C)C(=O)Nc1ccc(C(F)(F)F)cc1

Screen / compound no. | 11 | 12 | 13 | 14 | 15
Env fusion inh | -10[16.7 µM] | 6[16.7 µM] | -29[16.7 µM] | -5[16.7 µM] | 32[16.7 µM]
UUG fidelity | 9 | -4 | -20 | 2 | 1

[16] Cc1noc(C)c1S(=O)(=O)Nc1ccc2c(c1)C(=O)N([C@@H](C)CO)C[C@@H](C)[C@H](CN(C)Cc1ccc3c(c1)OCO3)OCCCC[C@H](C)O2
[17] COc1ccc(NC(=O)Nc2ccc3c(c2)C(=O)N([C@@H](C)CO)C[C@@H](C)[C@@H](CN(C)S(=O)(=O)c2ccc(C)cc2)OCCCC[C@H](C)O3)cc1
[18] C[C@@H]1CCCCO[C@H](CN(C)S(=O)(=O)c2ccccc2)[C@H](C)CN([C@@H](C)CO)C(=O)c2cc(NC(=O)Nc3ccc4c(c3)OCO4)ccc2O1
[19] C[C@@H]1CN([C@H](C)CO)C(=O)c2cc(C3=CCCC3)cnc2O[C@@H]1CN(C)Cc1ccccn1
[20] C[C@@H]1CCCCO[C@H](CN(C)C(=O)c2ccccc2)[C@@H](C)CN([C@@H](C)CO)C(=O)c2cc(NC(=O)c3ccncc3)ccc2O1

Screen / compound no. | 16 | 17 | 18 | 19 | 20
Env fusion inh | -6[16.7 µM] | 19[16.7 µM] | -4[16.7 µM] | 14[16.7 µM] | 1[16.7 µM]
UUG fidelity | 28 | -14 | -8 | -17 | 16

[21] COc1ccc(CN(C)C[C@H]2OCCCC[C@H](C)Oc3ccc(NC(=O)c4ccncc4)cc3C(=O)N([C@H](C)CO)C[C@H]2C)cc1
[22] C[C@@H]1CN([C@@H](C)CO)C(=O)c2cc(NC(=O)C3CCCCC3)ccc2O[C@@H](C)CCCCO[C@@H]1CN(C)S(=O)(=O)c1ccccc1
[23] C[C@@H]1CN([C@@H](C)CO)S(=O)(=O)c2ccc(-c3cccnc3)cc2O[C@@H]1CN(C)C(=O)C1CCC1
[24] COc1ccc(S(=O)(=O)Nc2ccc3c(c2)C(=O)N([C@H](C)CO)C[C@H](C)[C@@H](CN(C)CC2CCCCC2)OCCCC[C@@H](C)O3)cc1
[25] COc1cccc(NC(=O)N[C@H]2C=C[C@H](CC(=O)N3CCN(C)CC3)O[C@@H]2CO)c1

Screen / compound no. | 21 | 22 | 23 | 24 | 25
Env fusion inh | 16[16.7 µM] | 6[16.7 µM] | -10[16.7 µM] | -46[16.7 µM] | -53[16.7 µM]
UUG fidelity | -3 | -9 | -6 | 12 | -2

[26] O=C(C[C@@H]1C[C@H]2c3cc(NC(=O)C4CCC4)ccc3O[C@H]2[C@H](CO)O1)NCc1ccc2c(c1)OCO2
[27] CNC[C@@H]1Oc2ccc(NC(=O)Nc3c(C)noc3C)cc2C(=O)N([C@@H](C)CO)C[C@@H]1C
[28] COc1ccc(NC(=O)Nc2ccc3c(c2)C(=O)N([C@H](C)CO)C[C@@H](C)[C@@H](CN(C)S(=O)(=O)c2cccs2)O3)cc1
[29] Cc1noc(C)c1S(=O)(=O)N(C)C[C@@H]1Oc2c(NS(=O)(=O)c3cn(C)cn3)cccc2C(=O)N([C@@H](C)CO)C[C@@H]1C
[30] Cc1noc(C)c1S(=O)(=O)Nc1ccc2c(c1)C(=O)N([C@@H](C)CO)C[C@H](C)[C@H](CN(C)C(=O)CCC(F)(F)F)OCCCC[C@H](C)O2

Screen / compound no. | 26 | 27 | 28 | 29 | 30
Env fusion inh | 6[16.7 µM] | -5[16.7 µM] | 13[16.7 µM] | -17[16.7 µM] | -2[16.7 µM]
UUG fidelity | -2 | -2 | -1 | -2 | 22

[31] C[C@H](CO)N1C[C@H](C)[C@@H](CN(C)Cc2ccncc2)Oc2ccc(NC(=O)Nc3ccc(F)cc3)cc2C1=O
[32] O=C(NCC[C@@H]1CC[C@H](NC(=O)c2cccnc2)[C@H](CO)O1)Nc1ccc(F)cc1
[33] CO[C@H]1CN(C)C(=O)c2cc(NC(=O)c3cnccn3)ccc2OC[C@H](C)N(C)C[C@H]1C
[34] COCC(=O)N(C)C[C@H]1Oc2cc(-c3cccc(F)c3)ccc2S(=O)(=O)N([C@H](C)CO)C[C@@H]1C
[35] CNC(=O)C[C@H]1CC[C@H]2[C@@H](COc3ccc(NC(=O)Nc4c(C)noc4C)cc3C(=O)N2C)O1

Screen / compound no. | 31 | 32 | 33 | 34 | 35
Env fusion inh | 2[16.7 µM] | 2[16.7 µM] | -8[16.7 µM] | 14[16.7 µM] | -29[16.7 µM]
UUG fidelity | -4 | 8 | -9 | 25 | -18

[36] COc1ccc(NC(=O)N(C)C[C@@H]2Oc3c(NC(=O)Nc4ccc(F)cc4)cccc3C(=O)N([C@@H](C)CO)C[C@@H]2C)cc1
[37] CO[C@H]1CN(C)C(=O)c2ccc(NC(=O)c3ccc(F)cc3)cc2OC[C@@H](C)N(C)C[C@H]1C
[38] O=C(C[C@@H]1C[C@H]2c3cc(NC(=O)Nc4ccccc4)ccc3O[C@H]2[C@@H](CO)O1)NC1CCCCC1
[39] CN1C(=O)c2cc(NC(=O)Cc3ccccc3)ccc2OC[C@@H]2O[C@@H](CC(=O)NCC3CC3)CC[C@H]21
[40] C[C@H](CO)N1C[C@H](C)[C@H](CN(C)C(=O)CN(C)C)Oc2cc(C#C[C@@H](C)O)ccc2S1(=O)=O

Screen / compound no. | 36 | 37 | 38 | 39 | 40
Env fusion inh | -4[16.7 µM] | -1[16.7 µM] | 6[16.7 µM] | -5[16.7 µM] | -3[16.7 µM]
UUG fidelity | 10 | -11 | 3 | 7 | 10

[41] Cc1ccc(S(=O)(=O)Nc2ccc3c(c2)C(=O)N([C@@H](C)CO)C[C@H](C)[C@@H](CN(C)S(=O)(=O)c2ccc(C)cc2)O3)cc1
[42] COc1ccc(CN(C)C[C@@H]2Oc3c(NS(=O)(=O)c4cccs4)cccc3C(=O)N([C@@H](C)CO)C[C@@H]2C)cc1
[43] CC(=O)N[C@H]1CC[C@H](CC(=O)NCC2CCCCC2)O[C@@H]1CO
[44] C[C@@H]1CN([C@@H](C)CO)C(=O)c2cc(NC(=O)Cc3cn(C)c4ccccc34)ccc2O[C@@H]1CN(C)S(C)(=O)=O
[45] C[C@H]1CN([C@@H](C)CO)C(=O)c2cc(C#Cc3cccc(F)c3)cnc2O[C@@H]1CN(C)CC1CCCC1

Screen / compound no. | 41 | 42 | 43 | 44 | 45
Env fusion inh | -12[16.7 µM] | -32[16.7 µM] | -16[16.7 µM] | 3[16.7 µM] | 18[16.7 µM]
UUG fidelity | -4 | 5 | -22 | 11 | 4

Part of the list above, bar-delimited.
no. | smiles | Env fusion inh | UUG fidelity
42 | COc1ccc(CN(C)C[C@@H]2Oc3c(NS(=O)(=O)c4cccs4)cccc3C(=O)N([C@@H](C)CO)C[C@@H]2C)cc1 | -32[16.7 µM] | 5
43 | CC(=O)N[C@H]1CC[C@H](CC(=O)NCC2CCCCC2)O[C@@H]1CO | -16[16.7 µM] | -22
44 | C[C@@H]1CN([C@@H](C)CO)C(=O)c2cc(NC(=O)Cc3cn(C)c4ccccc34)ccc2O[C@@H]1CN(C)S(C)(=O)=O | 3[16.7 µM] | 11

New compounds follow.
[46] C[C@@H]1CCCCO[C@H](CN(C)Cc2ccc3c(c2)OCO3)[C@H](C)CN([C@@H](C)CO)C(=O)c2cc(NC(=O)Nc3ccc(F)cc3)ccc2O1
[47] C[C@H]1CN([C@@H](C)CO)C(=O)c2cc(NC(=O)Cc3cn(C)c4ccccc34)ccc2O[C@H]1CN(C)Cc1ccc(Oc2ccccc2)cc1
[48] CC(=O)N[C@@H]1CC[C@@H](CCNC(=O)Nc2ccc(C(F)(F)F)cc2)O[C@@H]1CO
[49] COc1ccc(S(=O)(=O)N(C)C[C@@H]2OCCCC[C@@H](C)Oc3ccc(NC(=O)NC4CCCCC4)cc3C(=O)N([C@@H](C)CO)C[C@H]2C)cc1
[50] CN(C)CC(=O)Nc1ccc2c(c1)[C@H]1C[C@H](CC(=O)NCc3ccccc3)O[C@H](CO)[C@H]1O2

Screen / compound no. | 46 | 47 | 48 | 49 | 50
Env fusion inh | -9[16.7 µM] | -7[16.7 µM] | 9[16.7 µM] | 27[16.7 µM] | -21[16.7 µM]
UUG fidelity | 22 | 10 | -1 | -5 | 15

[51] COc1ccc(NC(=O)Nc2ccc3c(c2)C(=O)N([C@@H](C)CO)C[C@@H](C)[C@@H](CN(C)Cc2ccc4c(c2)OCO4)OCCCC[C@@H](C)O3)cc1
[52] Cc1noc(C)c1S(=O)(=O)N(C)C[C@H]1Oc2ccc(NS(=O)(=O)c3ccc(Cl)cc3)cc2CC(=O)N([C@@H](C)CO)C[C@@H]1C
[53] COCCNC(=O)C[C@H]1CC[C@@H]2[C@@H](COc3ccc(NC(=O)Nc4ccccc4)cc3C(=O)N2C)O1
[54] C[C@H](CO)N1C[C@H](C)[C@@H](CN(C)Cc2ccc(C(F)(F)F)cc2)Oc2ccc(NC(=O)Nc3cccc4ccccc34)cc2CC1=O
[55] CC(C)C#Cc1ccc2c(c1)O[C@@H](CN(C)C(=O)c1cccnc1)[C@H](C)CN([C@@H](C)CO)S2(=O)=O

Screen / compound no. | 51 | 52 | 53 | 54 | 55
Env fusion inh | 10[16.7 µM] | 10[16.7 µM] | 3[16.7 µM] | -12[16.7 µM] | -18[16.7 µM]
UUG fidelity | 22 | 13 | 1 | 11 | 86

[56] C[C@H]1CN([C@@H](C)CO)C(=O)c2cccc(NS(=O)(=O)c3cn(C)cn3)c2O[C@H]1CN(C)Cc1ccccc1
[57] C[C@@H](NC(=O)C[C@H]1C=C[C@@H](NC(=O)C2CCOCC2)[C@H](CO)O1)c1ccccc1
[58] CCNC(=O)C[C@@H]1C=C[C@@H](NC(=O)NC2CCCCC2)[C@H](CO)O1
[59] C[C@H]1CN([C@@H](C)CO)C(=O)Cc2cc(NC(=O)C3CCCCC3)ccc2O[C@H]1CN(C)C(=O)Nc1ccc(C(F)(F)F)cc1
[60] C[C@H]1CN([C@@H](C)CO)S(=O)(=O)c2ccc(-c3cccnc3)cc2O[C@H]1CN(C)CC1CC1

Screen / compound no. | 56 | 57 | 58 | 59 | 60
Env fusion inh | 3[16.7 µM] | 5[16.7 µM] | 12[16.7 µM] | -123[16.7 µM] | 7[16.7 µM]
UUG fidelity | -14 | -6 | -9 | -6 | 0

[61] C[C@H]1CN([C@@H](C)CO)C(=O)c2cccc(NC(=O)C3CC3)c2O[C@@H]1CN(C)Cc1ccncc1
[62] C[C@@H]1CN([C@@H](C)CO)C(=O)c2cc(NC(=O)C3CCCCC3)ccc2O[C@@H](C)CCCCO[C@H]1CN(C)Cc1ccc(C(=O)O)cc1
[63] C[C@@H]1CN([C@H](C)CO)C(=O)c2cc(C#CC(C)(C)O)cnc2O[C@@H]1CN(C)C(=O)C1CCCCC1
[64] C[C@@H]1CN([C@@H](C)CO)C(=O)c2cc(NS(=O)(=O)c3ccc(Cl)cc3)ccc2O[C@@H](C)CCCCO[C@H]1CN(C)Cc1ccccc1
[65] CCCN(C)C[C@@H]1OCCCC[C@@H](C)Oc2ccc(N(C)C)cc2C(=O)N([C@H](C)CO)C[C@@H]1C

Screen / compound no. | 61 | 62 | 63 | 64 | 65
Env fusion inh | -4[16.7 µM] | 1[16.7 µM] | 4[16.7 µM] | -6[16.7 µM] | 3[16.7 µM]
UUG fidelity | 37 | 13 | 1 | 51 | -10
